Source: PubChem
Vaccinia Venus: qHTS for Stage-Specific Inhibitors of Vaccinia Orthopoxvirus: Venus Reporter Primary qHTS | Vaccinia virus Venus reporter expression, fluorescence | 330,000 compounds, 0.46% hits | AID 720580, 2013 | Potency, µM (doses to about 36.5 µM), inactives show top-dose activity change, negative = inhibition, actives largely listed as inhibitors; active means well fitted inhibition curve with a large enough effect; inconclusive means small, poorly fitted or top-dose-only effect; inactive means no such curve, though single readings can be large or run the other way; tested in A549 cells; also: nearly all actives have a fitted effect of over 30% in size; inactives centre near -10
Vaccinia mCherry: qHTS for Stage-Specific Inhibitors of Vaccinia Orthopoxvirus: mCherry Reporter Primary qHTS; Vaccinia virus mCherry reporter infection, fluorescence; about a quarter of the inactives have no number; Potency, µM (titrated, usually from 36.5 µM), for inactives: top-dose activity change, negative = inhibition, hits mostly inhibitors; 310,000 compounds, 0.63% hits; active = well fitted inhibition curve with a large enough effect; inconclusive = small, poorly fitted or top-dose-only effect; inactive = no such curve, though single readings can be large or run the other way; tested in A549 cells; also: nearly all actives have a fitted effect of over 35% in size; inactives centre near -10
Numbers without * were called inactive; i = inactive; ? = inconclusive; . = no result given; & = joins results of further samples; [ ] = dose if it differs, or a comment. % is scaled to controls: 0 for no effect and ±100 for the full control effect; potency is read from the fitted curve at half-maximal effect. Rows were taken by chance (roughly 0.82% active in at least one column).

mol | Vaccinia Venus | Vaccinia mCherry
CCc1ccc(Nc2nnc(SCn3nnc4ccccc4c3=O)s2)cc1 | -18% | .
NC(=O)CSc1oc(-c2ccco2)nc1S(=O)(=O)c1ccccc1 | -11% | 0%
COc1ccc(CNC(=O)CSCc2cccc(Cl)c2)cc1 | -7% | i
N[C@H](CO)C(=O)O | -14% | -1%
COc1ccc(NC(=O)c2ccccc2Sc2ccc(NC(C)=O)nc2)cc1 | -11% | i
N#Cc1cnc(SCC(=O)N2CCCC2)nc1N | -5% | -18%
O=C(Nc1ccccn1)c1ccc(Cl)c([N+](=O)[O-])c1 | -8% | -2%
COCCn1c(SCC(=O)N2CCOCC2)nnc1-c1ccncc1 | 13% | -18%
Cc1ccc(N2CC(C(=O)Nc3ccc(S(=O)(=O)NCC4CCCO4)cc3)CC2=O)cc1C (configuration not stated) | -16% | -24%
CCc1nn(CC(=O)NCc2ccc(OC)c(OC)c2)c(=O)c2cc3sc(C)cc3n12 | -7% | -3%
Cc1noc(NS(=O)(=O)c2ccc(NC(=O)/C=C/c3ccc(Cl)cc3Cl)cc2)c1C | -10% | i
COc1cccc(-n2nnc3c(=O)n(Cc4ccccc4Cl)cnc32)c1 | -7% | -9%
O=C(c1cc(Cl)nc2ccccc12)N1CCCCC1 | 4% | -7%
Cc1ccsc1/C=N/N1CCOCC1 | -9% | -11%
O=C(O)CN(c1ccccc1)C1SC(=O)NC1=O (configuration not stated) | -13% | .
Cc1cc(Br)ccc1NC(=O)CCCOc1cc(=O)n(C)c2ccccc12 | -14% | -13%
CC(C)N1C(=O)C2C(C(=O)NC3CCCCC3)C3C=CC2(O3)C1C(=O)NC1CCCC1 (configuration not stated) | -2% | -13%
Cc1ccc(-n2nc3c(c2NC(=O)c2cc4ccccc4o2)CS(=O)(=O)C3)cc1 | -15% | -15%
Cc1cccc(/C=N/NC(=O)c2ccc(NC(=O)c3ccccc3C)cc2)n1 | 5% | ?
O=C(NCC1(c2ccccc2)CCOCC1)c1cccs1 | -8% | 6%
CCCCN1CCN=C1N(C)C | -9% | -17%
Cc1sc2ncn(CC(=O)NCCCN3CC(C)CC(C)C3)c(=O)c2c1S(=O)(=O)N1CC(C)CC(C)C1 (configuration not stated) | -8% | -3%
Cc1ccc(Cn2cccc2/C=C2/C(=N)N3C=CSC3=NC2=O)cc1 | -12% | -2%
O=C(/C=C/c1ccc2c(c1)OCO2)N1CCCCC1 | -8% | i
COc1cc(C)c(S(=O)(=O)Nc2cccc(-c3ccc(N4CCCC4)nn3)c2)cc1C | -18% | -20%
Cc1ccc(S(=O)(=O)c2nc(-c3ccc(Cl)cc3)oc2N2CCCCCC2)cc1 | 3% | -7%
CCc1nc2ccc(C(=O)N3CCN(C)CC3)cn2c1N(C)CCCc1ccccc1 | -6% | i
COc1ccc(CC(=O)NCC(=O)N/N=C/c2ccc(C)o2)cc1 | -9% | -14%
Nc1nc2c(s1)C(=O)CCC2 | -14% | .
CC1CN(C(=O)CCC(=O)NCc2cccs2)c2cc(Cl)ccc2O1 (configuration not stated) | -4% | -10%
CC(=O)C(Sc1ccc2nnc(-c3ccc(C)cc3)n2n1)C(C)=O | -4% | ?
COc1ccccc1OC(=O)c1ccc(C)c(S(=O)(=O)N2CCOCC2)c1 | -19% | -22%
CCOC(=O)c1c(NC(=O)CSc2nnc3c(n2)[nH]c2ccccc23)sc2c1CCN(C)C2 | -9% | -15%
C[C@]12c3[nH]c4ccc(Cl)cc4c3CCN1C(=O)[C@@H](CC(=O)NCCc1ccccn1)C[C@@H]2C(=O)N1CCCCC1 | -29% | -15%
Cc1ccc(Cc2c(C)nc3nc(SCC(=O)NCCC(C)C)nn3c2C)cc1 | -12% | -11%
COCCCNC(=O)CCC(=O)NNc1nc2ccccc2c2nc(-c3ccccc3)nn12 | -2%&-21% | 2%&-27%
CN(C)N1C(N)=C(C#N)C(c2ccc(Br)cc2)C2=C1CC(C)(C)CC2=O (configuration not stated) | 0% | i
CCOC(=O)C1=C(COC(=O)/C=C/c2ccc(F)cc2)NC(=O)NC1C (configuration not stated) | -5% | i
COc1ccc(-c2nc(C(F)(F)F)c(OC)o2)cc1OC | -28% | -21%
O=C(Nc1cccc(S(=O)(=O)NC2=NCCCCC2)c1)c1cc(-c2ccco2)nc2ccccc12 | -14% | -14%

Filtered by structure: the entries above containing a thiophene ring, fused or not.
mol | Vaccinia Venus | Vaccinia mCherry
CCc1nn(CC(=O)NCc2ccc(OC)c(OC)c2)c(=O)c2cc3sc(C)cc3n12 | -7% | -3%
Cc1ccsc1/C=N/N1CCOCC1 | -9% | -11%
O=C(NCC1(c2ccccc2)CCOCC1)c1cccs1 | -8% | 6%
Cc1sc2ncn(CC(=O)NCCCN3CC(C)CC(C)C3)c(=O)c2c1S(=O)(=O)N1CC(C)CC(C)C1 (configuration not stated) | -8% | -3%
CC1CN(C(=O)CCC(=O)NCc2cccs2)c2cc(Cl)ccc2O1 (configuration not stated) | -4% | -10%
CCOC(=O)c1c(NC(=O)CSc2nnc3c(n2)[nH]c2ccccc23)sc2c1CCN(C)C2 | -9% | -15%

Next results
mol | Vaccinia Venus | Vaccinia mCherry
O=C(O)c1nc(-c2ccccc2)n(-c2ccccc2)n1 | -8% | -11%
Cc1cc(-c2nn(-c3ccccc3F)cc2CN2CCCC(C(N)=O)C2)c(C)s1 (configuration not stated) | -8% | -5%
O=C(NCCN1C(=O)C2C3C=CC(C3)C2C1=O)N1CCOCC1 (configuration not stated) | -2% | -5%
C=CCC[C@@H](Cc1ccc(F)cc1)C(=O)OCCNC(=O)[C@@H](CC=C)CC(=O)N(CCO)Cc1ccccc1 | ? | -2%
CCCc1c(C)nn(-c2ncccc2[N+](=O)[O-])c1C | 1% | i
CCCc1nc2ccccc2c(=O)n1-c1ccccc1OC | -9% | -10%
O=C1c2ccccc2C(=O)N1c1ccc2ncccc2c1 | -21% | -10%
Cc1cccc(NC(=O)C2CCC(CNS(=O)(=O)c3ccc(Br)s3)CC2)c1 (configuration not stated) | -13% | -14%
COC(=O)Nc1nnc(SCc2ccc(C)cc2)s1 | -17% | -4%
COc1ccc(C(=O)N2CCCC(C(=O)c3ccccc3OC)C2)cc1OC (configuration not stated) | 6%[7.34 µM] | -11%[7.34 µM]
COc1ccccc1CNC(=O)C1CCCN(S(=O)(=O)c2ccc3c(c2)C(C)(C)C(=O)N3C)C1 (configuration not stated) | -21% | i
COC(=O)c1sccc1-n1cc2c(c1-c1ccccc1)c(=O)n(C)c(=O)n2C | -6% | -17%
CC(=O)Nc1ccc(NC(=O)C(C)OC(=O)c2cc(S(=O)(=O)N3CCOCC3)ccc2Cl)cc1 (configuration not stated) | -20% | -19%
Cc1ccc(-c2cc(C(=O)N3CCN(c4ccc(F)cc4)CC3)c3ccccc3n2)o1 | -22% | .
Cc1cc(Nc2ccc(F)cc2F)n2nc(C)nc2n1 | 6% | -5%
O=C(CN1C(=O)c2cccnc2Oc2ccc(Cl)cc21)NCCc1ccccc1 | 10% | 4%
COc1ccc(-c2nnn3c2nc(NCc2ccccc2)c2ccccc23)cc1 | 9% | 8%
Cc1cc(C(=O)COC(=O)c2cc(Cl)ccc2N)c(C)n1Cc1ccco1 | -21% | -1%
COc1ccc(CC(=O)Nc2cc(Cl)ccc2N2CCCC2)cc1 | -11% | -21%
Cc1ccc(NC(=S)N(CCCN(C)C)Cc2cc3cc4c(cc3[nH]c2=O)OCO4)c(C)c1 | -2% | -5%
O=C(Nc1ccccc1F)c1ccc2sc([C@@H]3O[C@H](CO)[C@H](O)[C@H](O)[C@H]3O)nc2c1 | -10% | i
CCOC(=O)c1cc2c(=O)n3ccccc3nc2n(CC2CCCO2)c1=NC(=O)c1ccc(OC)cc1OC (configuration not stated) | -5% | -18%
Cc1cccc(/C(N)=N/OC(=O)c2ccccc2Cl)c1 | -10% | 0%
Cc1ccc(N=Cc2ccccc2O)cc1Cl | 6% | -5%
COc1ccc(OC)c(S(=O)(=O)NCCC2=CCCCC2)c1 | -8% | -16%
COc1ccc(CN(C)C[C@@H]2OCCCC[C@@H](C)Oc3ccc(N(C)C)cc3C(=O)N([C@H](C)CO)C[C@@H]2C)cc1 | -12% | -20%
O=C(N/N=C/c1coc2ccccc2c1=O)c1ccc(Cl)cc1 | -20% | -2%
O=C(Nc1ccccc1Sc1ccccc1)C1CCCO1 (configuration not stated) | -8% | -12%
Cc1c(C=O)c2ccccn2c1C(=O)c1ccccc1 | -3% | .
Cc1ccc(NC(=O)c2ncn(CC(=O)NCc3nc4ccccc4[nH]3)n2)cc1C | -27% | i
O=C(Nc1ncc(C(F)(F)F)cc1Cl)c1ccc(S(=O)(=O)N2CCOCC2)cc1 | -14% | -12%
C[C@@]12C(=O)N(c3cccc(Cl)c3)C(=O)N1[C@@H]1c3ccccc3OC[C@@H]1[C@H]2c1ccccc1 | 0% | i
O=C(Nc1cc2c3c(c1)CC(=O)N3CCC2)c1ccccc1C(F)(F)F | -19% | -6%
CC(=O)Nc1ccccc1OC(C)C(=O)N1CCC(C)CC1 (configuration not stated) | -16% | -1%
C[C@H]1CN(CCc2ccccc2)C(=O)[C@@H]1CC(=O)Nc1ccc(Br)cc1 | -23% | i
Cc1nc(-c2ccccc2)sc1C(=O)CSc1ccc(Cl)cc1 | -4% | .
CN(Cc1c(C(=O)N/N=C/c2c(F)cccc2Cl)nnn1-c1nonc1N)C1CCCCC1 | -6% | -11%
Cc1ccc(-n2c(Cc3ccccc3)n[nH]c2=S)c(C)c1 | -12% | -6%
COC(=O)C1=C(C)NC(C)=C(C(=O)OCCCN2CCC(c3ccccc3)(c3ccccc3)CC2)C1c1cccc([N+](=O)[O-])c1 (configuration not stated) | -5% | -10%
CC(=O)NC(Cc1ccc(Cl)cc1)C(=O)NCC(N)C(=O)c1ccccc1 (configuration not stated) | -11% | -25%
COc1ccc(CNC(=O)Cc2c(C)c3c(O)cc(C)cc3oc2=O)cc1 | 2% | 0%
COc1ccc(C(=O)N2CCOC2CNC(=O)C(=O)NCc2ccccc2Cl)cc1 (configuration not stated) | -10% | -2%
O=C(COC(=O)c1ccco1)NC12CC3CC(CC(C3)C1)C2 | 0% | -17%
O=C(NCCc1ccccc1)C1CCN(Cc2cc3ccccc3n2Cc2cccc(Cl)c2)CC1 | -18% | -21%
NC(=O)c1ccc(NC(=O)COC(=O)c2ccccc2Nc2ccccc2)cc1 | -5% | i
CCCC(O)(c1ccc(OC)cc1)C(CN1CCOCC1)c1ccccc1 (configuration not stated) | -18% | i
O=C(NCc1ccccn1)c1ccccc1-c1ccccc1 | -6% | -5%
C=CCc1cc(Cl)ccc1OCCCNC(C)C | -6% | i
O=C(O)CCCNc1n[nH]c(=O)[nH]c1=O | -13% | -6%
Cc1cc(C)cc(Nc2cc(C)nc3nc(-c4ccco4)nn23)c1 | -25% | -24%
COCCn1c(SCC(=O)NCC2CCCO2)nc2c(c1=O)SCC2 (configuration not stated) | -9% | -7%
COc1cc(O)c(C(=O)/C=C/c2ccc(OC)c(O)c2)c(OC)c1 | ? | ?
O=C(Cn1cc(SCc2ccccc2Cl)c2ccccc21)N1CCOCC1 | -10% | -29%
COc1ccc(NC(=O)COc2ccc(/C=N/O)cc2OC)cc1 | -3% | i
CCOCCCNC(=O)C(NC(=O)c1ccc(=O)[nH]c1)c1ccc(Cl)cc1 (configuration not stated) | -1% | i
Cc1c(Cl)cccc1NC(=O)CC(NCCN1CCOCC1)C(=O)O (configuration not stated) | 0%[7.34 µM] | 3%[7.34 µM]
Cc1cc(C)cc(Nc2ccc(C(=O)O)cc2[N+](=O)[O-])c1 | -15% | -12%
COc1cccc2sc(N(Cc3cccnc3)C(=O)C3CCCCC3)nc12 | -4% | -4%
COc1ccc(CNC(=O)c2ccc3c(=O)n4c(nc3c2)CCCCC4)cc1OC | -22% | -15%
COc1ccc(NC(=O)c2c(-c3ccccc3)noc2C)c(OC)c1 | -18% | i

Other structures
mol | Vaccinia Venus | Vaccinia mCherry
Cc1cc(-c2ccc(C)c(S(=O)(=O)N(C(C)C)C3CCCCC3)c2)on1 | -20% | -1%
Cc1ccc(Cl)cc1NC(=O)C1CCN(C(=O)c2cnn(-c3ccccc3)c2-n2cccc2)CC1 | -10% | -20%
Cc1ccc(N2CCN(C(=O)NCc3noc4ccc(C)cc34)CC2)c(C)c1 | -5% | -8%
Cc1nonc1OCCNCc1c(C(=O)N2CCCCCCC2)nc2ccc(Cl)cn12 | -3% | -9%

Already shown: entries from further up.
mol | Vaccinia Venus | Vaccinia mCherry
Cc1cc(-c2ccc(C)c(S(=O)(=O)N(C(C)C)C3CCCCC3)c2)on1 | -20% | -1%
Cc1ccc(Cl)cc1NC(=O)C1CCN(C(=O)c2cnn(-c3ccccc3)c2-n2cccc2)CC1 | -10% | -20%
Cc1ccc(N2CCN(C(=O)NCc3noc4ccc(C)cc34)CC2)c(C)c1 | -5% | -8%
Cc1nonc1OCCNCc1c(C(=O)N2CCCCCCC2)nc2ccc(Cl)cn12 | -3% | -9%
